# Screening results: PubChem, several laboratories
# CBX7 inh: inhibitors of human CBX7 binding to H3K27me3 peptide; O95931; AlphaScreen His6-CBX7 / biotin-H3K27me3 peptide binding; active compounds read low; normalised signal (fraction of DMSO) (test concentration not listed); 66,000 tested, 1.1% active; AID 1224903; in the data active = normalised signal below about 0.5;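 note: 100 nL library stock added to about 20 µL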
# Target sequence (O95931 whole entry, looked up): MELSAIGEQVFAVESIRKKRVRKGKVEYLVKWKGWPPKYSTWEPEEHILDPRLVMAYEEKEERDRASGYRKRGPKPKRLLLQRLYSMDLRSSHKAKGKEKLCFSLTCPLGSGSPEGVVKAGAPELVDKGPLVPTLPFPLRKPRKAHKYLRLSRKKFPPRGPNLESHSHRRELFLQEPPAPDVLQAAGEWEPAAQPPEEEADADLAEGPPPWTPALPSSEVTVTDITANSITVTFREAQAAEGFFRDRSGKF
# CBX7 inh z-score: further read-out of CBX7 inh, marked with its call; z-score; measured here: z-score of CBX7 signal; some inactives read as strong as hits; reference of the scale not given here;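 same signal on another scale; lower means less binding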
# Numbers without * were called inactive; & = joins results of further samples.
# The first six records, ahead of the listing:
SMILES,CBX7 inh,CBX7 inh z-score
COc1ccc(CNc2nc(-c3ccc(Cl)cc3)cc(C(F)(F)F)n2)cc1,1.7,27
Cc1ccc(OCCCCn2c(CCCO)nc3ccccc32)cc1,0.82,-2.6
CC1CCC(NC(=O)C2c3cccn3CC(=O)N2c2ccc(F)cc2)CC1 (centres undefined),1.1,1.7
COc1ccccc1-n1cnc2cc(C(=O)NCc3cccnc3)ccc21,0.97,-0.03
COc1ccc(CNC(=O)Cc2c(C(=O)O)[nH]c3ccc(Cl)cc23)cc1,0.98,-0.73
Cc1ccc(OCC(=O)Nc2c(C(=O)c3ccc(Cl)cc3)oc3ccccc23)cc1,1.2,0.82

# The list itself, repeating the preview:
SMILES,CBX7 inh,CBX7 inh z-score
COc1ccc(CNc2nc(-c3ccc(Cl)cc3)cc(C(F)(F)F)n2)cc1,1.7,27
Cc1ccc(OCCCCn2c(CCCO)nc3ccccc32)cc1,0.82,-2.6
CC1CCC(NC(=O)C2c3cccn3CC(=O)N2c2ccc(F)cc2)CC1 (centres undefined),1.1,1.7
COc1ccccc1-n1cnc2cc(C(=O)NCc3cccnc3)ccc21,0.97,-0.03
COc1ccc(CNC(=O)Cc2c(C(=O)O)[nH]c3ccc(Cl)cc23)cc1,0.98,-0.73
Cc1ccc(OCC(=O)Nc2c(C(=O)c3ccc(Cl)cc3)oc3ccccc23)cc1,1.2,0.82
CCC(Sc1nc2ccccc2[nH]1)C(=O)Nc1ccc(OC(F)(F)F)cc1 (centres undefined),1.1,3.3
Cc1ccc(-c2nc3ccccn3c2Nc2ccc(F)cc2)cc1,0.85,-0.26
CCc1ccccc1NC(=O)C(C)N1C(=O)c2ccccc2C1=O (centres undefined),0.98,-0.41
CCc1ccccc1NC(=O)c1cccc2c1C(=O)N(Cc1cccnc1)C2,0.67,-2.7
CCOc1ccc(CCNC(=O)CN2C(=O)COc3ccc(C(C)(C)C)cc32)cc1OCC,0.74,-5.2
O=C(NCc1cccs1)c1cccc2c1C(=O)N(C1CCCCC1)C2,0.93,-1.3
CCN(CC)CC#CC(O)(c1ccccc1)c1cccc(F)c1 (centres undefined),1.3,2.4
COc1cccc(-c2nc(-c3ccc(C)cc3)no2)c1OC,1.2,2.9
COc1ccc(-c2noc(CCCc3ccccc3)n2)cc1,1.4,12
CCCCN(C)CCNC(=O)CN1C(=O)CSc2ccc(S(=O)(=O)N3CCOCC3)cc21,0.99,-0.35
COc1ccc(-c2ccc(=O)n(CC(=O)Nc3ccccc3Cl)n2)cc1,1.1,1.7
CCOC(=O)c1[nH]c(C)c(C(=O)NCCc2ccccc2)c1C,0.82,-2.3
CCN(CC)C(=O)C1CCCc2c1[nH]c1ccc(Cl)cc21 (centres undefined),0.95,-1.3
Cc1ccc2cc(CCNC(=O)c3cc4ccccc4o3)c(=O)[nH]c2c1,1.1,2.1
COc1ccc(-c2noc(CCC(=O)N3CCN(c4ccc(C)cc4)C(C)C3)n2)cc1 (centres undefined),0.85,-0.15
CCOC(CNC(=O)C1CCN(Cc2nc(-c3cccc(Cl)c3)oc2C)CC1)OCC,1.4,3.1
CCn1c(C2CC(=O)N(c3ccccc3)C2)nc2ccccc21 (centres undefined),1,0.11
CC(Oc1ccccc1)C(=O)Nc1c2c(nn1-c1ccc(Cl)cc1)CS(=O)(=O)C2 (centres undefined),1.1,1.1
O=C(Nc1ccc(-c2nc3ccccc3o2)cc1)c1ccccc1Oc1ccccc1,1.1,0.65
Cc1ccnc(NS(=O)(=O)c2ccc(NC(=O)c3ccc(C)c(C)c3)cc2)n1,1,0.37
CCCCNC(=O)CN1CCN(Cc2ccc(C)cc2)C1=O,1,0.31
COc1cccc(NC(=O)Cn2cnc3c(nnn3Cc3ccc(C)cc3)c2=O)c1,1,0.0078
O=C(NCc1ccc2c(c1)OCO2)C(O)(c1ccccc1)c1ccccc1,0.91,-1.2
COc1cc2c(C)nc3onc(-c4ccccc4)c3c2cc1OC,0.99,-0.11

# Entries of single compounds from above:
# COc1ccc(-c2ccc(=O)n(CC(=O)Nc3ccccc3Cl)n2)cc1 reads CBX7 inh: 1.1; CBX7 inh z-score: 1.7
# Cc1ccc2cc(CCNC(=O)c3cc4ccccc4o3)c(=O)[nH]c2c1 reads CBX7 inh: 1.1; CBX7 inh z-score: 2.1

# Next part
SMILES,CBX7 inh,CBX7 inh z-score
COc1ccccc1CN1C(=O)CCC1(C)C(=O)NC1CCCCC1 (centres undefined),1,0.6
CCC(=O)N1c2ccccc2NC2=C(C(=O)CCC2)C1c1cccc(Br)c1 (centres undefined),1,0.16
CCCCNC(=O)c1ccc2c(c1)N(Cc1ccccc1C)C(=O)CS2,1.1,1.4
COc1ccc(-n2ncc3c(NCc4ccccc4OC)ncnc32)cc1,0.9,-0.099
CCOC(=O)c1cccc(NC(=O)c2cccc3c2C(=O)N(c2ccc(OC)cc2)C3)c1,0.68,-5.9
Nc1ccc(-c2nc3cc(Cl)ccc3o2)cc1,0.99,-0.12
CCN1CCN(CCNC(=O)C2CCCN(Cc3nc(-c4cccc(Cl)c4)oc3C)C2)CC1 (centres undefined),0.99,-0.16
CCN(CC)S(=O)(=O)c1cc(-c2nnc(-c3ccc(C)cc3)o2)ccc1C,1.1,0.69
O=C(C1CCC1)N1CCc2cc(S(=O)(=O)NCc3ccccn3)ccc21,0.73,-1.1
COc1ccc(C(=O)CC2(O)C(=O)N(CC(N)=O)c3ccccc32)cc1OC (centres undefined),1.1,0.13
O=C(Nc1c(-c2cccs2)nc2ccccn12)C1CCCCC1,1.1,1.4
CCc1nc2ccccc2n1CC(O)COc1ccc(F)cc1 (centres undefined),1,0.031
COc1ccccc1-n1cc(C(=O)NCC(=O)NCc2ccc(F)cc2)c2ccccc2c1=O,1.1,1.3
Cc1ccc(NC(=O)Cn2c(Cc3ccccc3)nc3sc4c(c3c2=O)CCCC4)cc1F,0.98,-0.41
Cc1nc2c(C(=O)NCc3ccc(F)cc3)cnn2c(C)c1Cc1cccc(Br)c1,1,2
Cc1nc2cc(-c3ccc(Cl)cc3)nn2c(C)c1CCC(=O)NCCCN1CCCC1=O,0.97,-0.54
Clc1cccc(Cl)c1Cn1c(-c2cncs2)nc2ccccc21,0.76&0.61,-2.3&-10
Cc1ccc(N2C(=O)Cn3cccc3C2C(=O)NC2CCCCC2C)cc1 (centres undefined),0.91,-1.8
Cc1ccc(CNc2oc(-c3ccc(F)cc3)nc2C#N)cc1,0.93,-2.3
COc1ccc(CN2CCN(Cc3ccc(F)cc3)CC2)cc1OC,0.9,-1.8
O=C(O)CCC(=O)Nc1ccccc1C(=O)c1ccc(Cl)cc1,1.4,1
CCc1nnc(NC(=O)c2ccc(S(=O)(=O)N(C)C)cc2)o1,0.042*,-1.7*
COCCNC(=O)C1CCN(C(=O)c2sccc2-n2cccc2)CC1,0.96,-0.85
CCOc1ccc(NC(=O)CN2CC(c3ccccc3)CC2=O)cc1 (centres undefined),1,0.12
CCCOc1ccc(N2C(=O)CC(Nc3ccc(OC)cc3)C2=O)cc1 (centres undefined),1.2,1.6
O=C(Nc1cccnc1)c1cc2ccccc2oc1=O,0.95,-1.3
CCOc1ccccc1CN1C(=O)c2ccccc2C1C(=O)NC1CCCCC1 (centres undefined),0.94,-0.87
CCCOc1ccc(C2C(=O)N(C3CCCCCC3)CC(=O)N2Cc2ccccc2OC)cc1OC (centres undefined),0.71,-1.2
CCCCC(=O)Nc1cccc(NC(=O)c2cccnc2)c1,0.91,-1.8
O=C(COc1ccccc1Cl)N(Cc1cccs1)C1CCS(=O)(=O)C1 (centres undefined),0.87,-1.1

# Random excerpt: 6 records from the list, in no set order.
SMILES,CBX7 inh,CBX7 inh z-score
O=C(O)CCC(=O)Nc1ccccc1C(=O)c1ccc(Cl)cc1,1.4,1
O=C(COc1ccccc1Cl)N(Cc1cccs1)C1CCS(=O)(=O)C1 (centres undefined),0.87,-1.1
CCCOc1ccc(C2C(=O)N(C3CCCCCC3)CC(=O)N2Cc2ccccc2OC)cc1OC (centres undefined),0.71,-1.2
Clc1cccc(Cl)c1Cn1c(-c2cncs2)nc2ccccc21,0.76&0.61,-2.3&-10
CCOc1ccccc1CN1C(=O)c2ccccc2C1C(=O)NC1CCCCC1 (centres undefined),0.94,-0.87
Cc1ccc(CNc2oc(-c3ccc(F)cc3)nc2C#N)cc1,0.93,-2.3

# The list goes on.
SMILES,CBX7 inh,CBX7 inh z-score
CCCCN(CC)CCNC(=O)CCC(=O)Nc1ccc2nc(N3CCN(C)CC3)cc(C)c2c1,1.1,0.9
COC(=O)CN1C(C)=Nc2ccc(Br)cc2C1c1ccccc1 (centres undefined),0.91,-0.96
CN1CCN(c2ccccc2NS(=O)(=O)c2ccc3c(c2)CCN3C(=O)C2CC2)CC1,1,1.2
O=C(c1cc2n(n1)C(C(F)(F)F)CC(c1ccc(Br)cc1)N2)N1CCOCC1 (centres undefined),1,0.53
CCOc1ccc(NC(=O)N(CCC(C)C)C2CCN(C(C)C)CC2)cc1,1,-0.049
O=C(c1cc(-c2ccc(Br)cc2)on1)N1CCCc2ccccc21,0.82,-1.8
COc1ccc(Cl)cc1-n1cc(-c2ccccc2)nc1SCC(=O)Nc1nccs1,0.76,-2.8
CCc1ccc(NC(=O)c2cc(-c3ccc(Cl)cc3)on2)cc1,1.1,0.35
Cc1cc(N2CCC(C)CC2)nc2ccc(NC(=O)CCC(=O)NC3CCCCCC3)cc12,1,-0.016
COc1ccc(-c2noc(COc3ccc(Br)cc3C)n2)cc1OC,1.3,14
CC(=O)N1CCc2cc(S(=O)(=O)NCc3ccc4c(c3)OCO4)ccc21,1,0.36
CCc1ccccc1NC(=O)c1c(C)c(-c2ccc(Cl)cc2)nc2ccccc12,0.95,-0.17
Cc1sc2nc(-c3ccccc3Cl)n(CC(=O)NC3CCCCC3)c(=O)c2c1C,0.77,-4.9
CCC(=O)N1CCc2cc(S(=O)(=O)NC(CC(C)C)C(=O)NCc3ccc(Cl)cc3)ccc21 (centres undefined),1.1,1.8
Cc1ccc2c(c1)NC(=O)C(CC(=O)Nc1ccc(F)cc1)O2 (centres undefined),1,1.6
CCCCCCCNC(=O)CN1C(=O)C(CC)Oc2ccccc21 (centres undefined),0.91,-0.97
CCOc1ccc(NC(=O)Cn2ncc3c2-c2ccccc2OC3)cc1,1,0.18
Cc1nc2ccc(C(=O)NC3CCCCC3)cc2nc1C,0.94,-0.73
O=C(Cc1ccc(-n2c(=O)[nH]c3ccccc3c2=O)cc1)NCc1cccnc1,1,0.11
O=C(NCc1ccccc1)C1CC(=O)N(C2CCCCCC2)C1 (centres undefined),1,-0.21
COCCCN1C(=O)c2ccccc2C1C(=O)NC1CCCCCC1 (centres undefined),1.1,0.35
CCCCCn1c(=O)[nH]c2cc(C(=O)N3CC=C(c4ccccc4)CC3)ccc2c1=O,1,-0.041
Cc1ccc(OCCSc2nc3ccc(Br)cc3[nH]2)cc1C,0.83,-0.67
O=C(NCCCN1CCCCC1)c1ccc2c(c1)ncn2C1CCCC1,1,1.3
Cc1ccc(CNC(=O)c2ccc3c(c2)N(Cc2ccccc2Cl)C(=O)c2ccccc2S3)cc1,0.93,-1.8
COc1ccc(C2CC(=O)NC3=C2C(=O)CC(C)(C)C3)cc1 (centres undefined),1,0.31
CC(C(=O)NCc1ccccc1)C1Sc2ccccc2N(Cc2cccc(Cl)c2)C1=O (centres undefined),0.86,-0.29
COc1ccc(C2NCCc3cc(OC)c(OC)cc32)c(O)c1 (centres undefined),0.92,-0.36
COC(CNC(=O)c1ccc2c(c1)N(Cc1cc(C)ccc1C)C(=O)c1ccccc1S2=O)OC (centres undefined),1,0.34
COc1cc2c(cc1OC)C(c1ccccc1Br)CC(=O)N2 (centres undefined),1.1,0.68
COc1cccc(C2CC(c3ccc(Br)cc3)Nc3ncnn32)c1 (centres undefined),0.98,-0.73
O=C(Cn1cc(S(=O)(=O)c2ccc(F)cc2)c(=O)c2cc(F)ccc21)Nc1ccc2c(c1)OCO2,0.98,-0.65
O=C(c1ccc2nc(N3CCOCC3)sc2c1)N1CCCCCC1,1.1,0.74
CCCCN(C)CCCNC(=O)CCn1nc(-c2ccccc2)ccc1=O,1,1
COc1ccc(CN2C(=O)N(c3ccccc3)C(=O)C2CC(=O)Nc2ccc(OC)cc2)cc1 (centres undefined),0.9,-0.45
Cc1ccc2oc(-c3ccc(NC(=O)c4cc(Br)ccc4Cl)cc3O)nc2c1,0.87,-1.9
COc1ccc(Nc2cc(C(=O)NCCN3CCCC3)c3ccccc3n2)cc1,0.95,-0.048
COc1ccccc1-n1cc(-c2ccccc2)nc1SCC(=O)Nc1cccc(C)c1C,0.72,-9.2
CCN1C(=O)c2ccccc2S(=O)c2ccc(C(=O)NCC3CCCO3)cc21 (centres undefined),1,0.22
Cc1ccc(-n2cc(-c3ccc4c(c3)OCO4)nc2SCC(=O)Nc2cccc(C)c2)cc1,0.63,-3.8
Cc1ccc(C)c(NC(=O)c2cc3n(n2)C(C(F)(F)F)CC(c2ccc4c(c2)OCO4)N3)c1 (centres undefined),0.89,-0.11
COc1ccc(OC)c(NC(=O)c2nn(-c3ccccc3OC)c(=O)c3ccccc23)c1,0.84,-2.9
O=C(Nc1sc2c(c1C(=O)Nc1ccccc1)CCCCC2)c1ccccc1Cl,0.99,-0.16
C=CCc1ccccc1OCC(O)CN1CCN(c2ccccc2)CC1 (centres undefined),0.76,-1.5
COc1ccc(C(=O)Nc2ccc(-c3cn4ccccc4n3)cc2)cc1,0.93,-1.9
CC(C)OCCCNC(=O)CN1N=C(c2ccc(Cl)cc2)CCC1=O,0.99,-0.1
Cc1ccc(NS(=O)(=O)c2cnc[nH]2)c(Cl)c1,0.9,-1.3
Cc1ccc(Nc2c(-c3ccc(N(C)C)cc3)nc3ccccn23)cc1,0.72,-2.9
CCCCC(C(=O)Nc1ccccc1OC)N1C(=O)c2ccccc2C1=O (centres undefined),1,-0.0025

# These rows are one share of the data; the hit share may differ from the screen's.
